VACV Venus inh: qHTS for Stage-Specific Inhibitors of Vaccinia Orthopoxvirus: Venus Reporter Primary qHTS; Vaccinia virus Venus reporter expression, fluorescence; Potency, µM (highest dose often 36.5 µM), inactives show at the top dose activity change, negative = inhibition, usual class: inhibitors; 330,000 compounds, 0.46% hits; AID 720580, 2013; active means well fitted inhibition curve with a large enough effect; inconclusive means small, poorly fitted or top-dose-only effect; inactive means no such curve, though single readings can be large or run the other way; tested in A549 cells; also: nearly all actives have a fitted effect of over 30% in size; inactives centre near -10
VACV mCherry inh: qHTS for Stage-Specific Inhibitors of Vaccinia Orthopoxvirus: mCherry Reporter Primary qHTS; Vaccinia virus mCherry reporter infection, fluorescence; about a quarter of the inactives have no number; Potency, µM (doses to about 36.5 µM), without a hit: at the top dose activity change, negative = inhibition, actives largely listed as inhibitors; 310,000 compounds, 0.63% hits; AID 720579, 2013; active = well fitted inhibition curve with a large enough effect; inconclusive = small, poorly fitted or top-dose-only effect; inactive = no such curve, though single readings can be large or run the other way; tested in A549 cells; also: nearly all actives have a fitted effect of over 35% in size; inactives centre near -10
The depositor's hits bear a star; i = inactive; ? = inconclusive; / = not tested or not shown; [ ] = remark or other dose. % is scaled to controls: 0 for no effect and ±100 for the full control effect; potency is read from the fitted curve at half-maximal effect.

SMILES | VACV Venus inh | VACV mCherry inh
COc1ccc(CCNC(=O)CSc2nnc3ccc(-c4cccnc4)nn23)cc1OC | -11% | -10%
C[C@H]1CN([C@@H](C)CO)C(=O)CCCn2nncc2CO[C@@H]1CN(C)S(=O)(=O)c1cccc(C#N)c1 | -5% | -6%
NS(=O)(=O)c1cc(C(=O)NNC(=O)c2ccc3c(c2)OCO3)ccc1Cl | -15% | -4%
CCOC(=O)c1ccccc1NC(=O)CSc1cc(C)[nH]c(=O)n1 | 0% | -5%
CCOC(=O)[C@@H]1[C@H]2COc3ccc(Br)cc3[C@@H]2N2C(=O)N(c3ccc(C)cc3)C(=O)[C@]12C | -18% | i
C=CCC1(C#N)C(SC)=NC2=C(C(=O)CC(C)(C)C2)C1c1ccc(Br)cc1 (stereo not given) | -11% | -24%
CCC(=O)NC(=S)Nc1ccc(NC(=O)COc2ccc(Cl)cc2Cl)cc1 | -15% | -9%
COc1ccccc1N(Cc1ccccc1)S(=O)(=O)c1cccc(C(=O)Nc2ccc(C(C)=O)cc2)c1 | -7% | -10%
COC(=O)c1sccc1S(=O)(=O)N(CC(=O)NCc1ccc(C)cc1)c1ccc(Cl)cc1 | -15% | -13%
Cc1noc(C)c1COC(=O)C1CCN(S(=O)(=O)c2c(Cl)cccc2Cl)CC1 | -5% | -18%
COc1ccc(Br)cc1/C=N/N1C(=O)CSC1=S | 17% | i
CCCCCCCCCCOC(=O)C[N+](C)(C)CC1CCCCC1O (stereo not given) | -3% | i
Cc1ccc(CS(=O)(=O)Cc2ccc(C(=O)NCCc3ccc(Cl)cc3)o2)cc1 | -3% | -20%
Cc1[nH]c(=O)[nH]c(=O)c1C1N2CC3(C(C)C)CN1CC(C(C)C)(C2)C3=O (stereo not given) | -11% | 4%
NC(=O)C1CCN(c2ccc(S(=O)(=O)N3CCCCC3)cc2[N+](=O)[O-])CC1 | -21% | -4%
CCC1CN(C(=O)N2CCC(C(=O)NCc3cccs3)CC2)c2ccccc2O1 (stereo not given) | -8% | 6%
CCCc1nc(SCC(=O)Nc2ccccc2)c2c(=O)n(C)c(=O)n(C)c2n1 | -19% | 16%
COc1ccc(CNC(=O)C(C)OC(=O)CO/N=C(\C)c2ccc3c(c2)OCO3)cc1 (stereo not given) | -7% | i
COc1ccccc1-c1nc2n(n1)C(c1ccc(Cl)cc1)C(C(N)=O)=C(C)N2 (stereo not given) | -8% | -14%
Cc1ccc(NC(=O)C(=O)NN=C2CCCC2)cc1C | -5% | -10%
COc1ccc(-c2cc(=O)c3c(C)cc(O)cc3o2)cc1 | -19% | i
CC(=O)Nc1cc(-c2ccc(N3CCN(C)CC3)cc2)cn2c(-c3cccc(C(C)=O)c3)cnc12 | -1% | -14%
C(#CSCc1ccccc1)SCc1ccccc1 | 10% | i
CCCCC(=O)Nc1cccc(NC(=O)CC)c1 | -8% | 4%
COc1ccc(-c2cc(=O)c3ccc(O)cc3o2)cc1 | -4% | 14%
N#CCC(=O)N1CCN(C=O)CC1 | 0% | i
COc1ccc(CCN2CC(C(=O)NCc3nc(C)c(C)s3)CCC2=O)cc1 (stereo not given) | -5% | i
O=C(NN(CC(O)COc1ccccc1)CC(O)COc1ccccc1)c1ccccc1 (stereo not given) | -2%[7.34 µM] | i[7.34 µM]
COC(=O)c1c(C)sc(-c2c(-c3ccc4c(c3)OCCO4)[nH]c3[nH]c(=O)[nH]c(=O)c23)c1O | 5% | 10%
Cc1ccc(NC(=O)CSc2ncnc3ccccc23)cc1S(=O)(=O)N1CCCCC1 | ? | ?
O=C(O)c1ccccc1-c1ccccc1C(=O)NCc1ccccc1F | -22% | -25%
COc1ccc(/C=C/C(=O)NNc2c(F)c(F)cc(F)c2F)cc1OC | -12% | -26%
CC1(C)OC2C(CO)OC(n3cnc4c(=S)nc(N)[nH]c43)C2O1 (stereo not given) | -9% | -7%
O=C(CN1C(=O)COc2ccc(S(=O)(=O)N3CCCC3)cc21)NCCc1ccc(Cl)cc1 | -16% | -16%
CCCCN(C(=O)c1cc(CC)c(C)s1)c1c(N)n(CC(C)C)c(=O)[nH]c1=O | 7% | i
COc1cccc(C(c2sc3nc(C)nn3c2O)N2CCc3ccccc3C2)c1 (stereo not given) | 2% | 11%
COC(=O)c1cc(S(=O)(=O)NCc2cccc(OC)c2)cn1C | 2% | -6%
CC(C)NC(=O)c1cn(C2CCC(NC(=O)C(C)(C)C)CC2)nn1 (stereo not given) | -5% | -4%
Clc1ccccc1-c1cc(NCc2cccnc2)ncn1 | -4% | -2%
O=c1n(-c2ccccc2)c(=O)n2n1CCCC2 | 3% | -9%
Nc1ccn([C@@H]2O[C@H](C(=O)Nc3ccc(Oc4ccccc4)nc3)[C@@H](O)[C@H]2O)c(=O)n1 | 0% | 8%
N/N=C1\CCCc2c1[nH]c1ccc([N+](=O)[O-])cc21 | -5% | -6%
OCC(O)C1OCOC(C(O)CO)C1O (stereo not given) | -6% | i
c1ccc2c(CSc3ncnc4nc[nH]c34)cccc2c1 | -7% | i
CCCCN1C(=O)C(=O)NC[C@@H]1C(C)CC (stereo not given in full) | -7% | i
O=C(CCNC(=O)c1ccccc1)NNC(=O)c1ccccc1Br | -8% | -16%
O=C(NCc1ccco1)C1CCN(c2ccc(N3CCOCC3)nn2)CC1 | 1% | i
CS(=O)(=O)c1ccc(-c2cccc(NC(=O)COc3ccc(Cl)cc3)c2)nn1 | -5%[7.34 µM] | -10%[7.34 µM]
CC1(C)CC(=O)C(C=NCCN2CCN(C(=O)CC3CCCC3)CC2)=C(O)C1 | -18% | -5%
Cc1nc2nc(NC(=O)c3ccc(C(C)(C)C)cc3)[nH]n2c(=O)c1Cl | -1% | -11%
O=C1NC(NS(=O)(=O)c2ccc(Cl)cc2)(C(F)(F)F)C(=O)N1c1ccccc1 (stereo not given) | -2% | -4%
Cn1c(=N)n(CC(O)c2cccs2)c2ccccc21 (stereo not given) | -5% | -1%
C[C@@H]1CC=C[C@H]2[C@H]1C(=O)N(Cc1ccccc1)[C@H]2c1cccc([N+](=O)[O-])c1 | -10% | ?
CN(CC(=O)NCc1cccs1)S(=O)(=O)c1cccc2cccnc12 | -15% | -5%
Cc1nn2c(=O)cc(COC(=O)c3ccc(C(C)(C)C)cc3)nc2s1 | 2% | -3%
C#Cc1cccc(NC(=O)c2ccc(Cl)cc2Cl)c1 | -16% | 1%
COc1ccc(N2C(=O)C(CC(=O)Nc3ccc(Cl)cc3)N(NC(=O)c3cccc(F)c3)C2=S)cc1 (stereo not given) | -9%[7.34 µM] | -25%[7.34 µM]
CCOC(=O)C1=C(C)OC(N)=C(C#N)C1C1CCCCC1 (stereo not given) | ? | /
COc1ccc(CN2C[C@@H](CO)O[C@@H](n3cnc4c(N5CCN(c6ccccc6)CC5)ncnc43)C2)cc1 | -5% | i
N#Cc1ccccc1NC(=O)Nc1cccc(Cl)c1 | -12% | -14%
Continuation:
SMILES | VACV Venus inh | VACV mCherry inh
O=C(CNC(=O)c1ccccc1F)OCC(=O)N1CCCCC1 | -1% | -8%
CC(=O)Nc1ccc2c(c1)C(=O)N(c1ccc(C)cc1)C2=O | -10% | -10%
CCCCN(C(=O)CSc1nc2ccccc2s1)c1c(N)n(CCCC)c(=O)[nH]c1=O | 5% | -14%
COc1ccc(NC(=O)c2cc3c(=O)n(Cc4cccs4)ccc3nc2C)c(OC)c1 | -2% | i
CCOc1ccc(NC(=O)CCc2c(C)nc3c(c(C)nn3-c3ccccc3)c2C)cc1 | -8% | -12%
CN(C)c1nc(NCc2ccccc2)nc(SCC(=O)Nc2ccccc2Cl)n1 | -17% | -15%
Cc1cc(C)c(Cn2c(=O)n(CCCCCC(=O)NCc3ccc4c(c3)OCO4)c(=O)c3sccc32)c(C)c1 | -17% | -22%
Cc1nc2c(O)c3c(c(O)c2nc1C)C1C=CC3CC1 | -25% | -4%
COc1ccc(C(=O)COC(=O)CNS(=O)(=O)c2ccc(C)cc2)cc1 | -12% | -16%
CC(NC(=O)Nc1cccc([N+](=O)[O-])c1)(C(F)(F)F)C(F)(F)F | ? | ?
CC(C)c1ccc(NC(=O)Nc2nc(C(N)C3CCCCC3)cs2)cc1 (stereo not given) | ? | -27%
CCOC(=O)c1sc(NC(=O)c2ccc(S(=O)(=O)N3CCOCC3)cc2)cc1C | ? | ?

Reformatted as a markdown table: entries from further up
| SMILES | VACV Venus inh | VACV mCherry inh |
| --- | --- | --- |
| C#Cc1cccc(NC(=O)c2ccc(Cl)cc2Cl)c1 | -16% | 1% |
| COc1ccc(N2C(=O)C(CC(=O)Nc3ccc(Cl)cc3)N(NC(=O)c3cccc(F)c3)C2=S)cc1 (stereo not given) | -9%[7.34 µM] | -25%[7.34 µM] |
| CCOC(=O)C1=C(C)OC(N)=C(C#N)C1C1CCCCC1 (stereo not given) | ? | / |
| COc1ccc(CN2C[C@@H](CO)O[C@@H](n3cnc4c(N5CCN(c6ccccc6)CC5)ncnc43)C2)cc1 | -5% | i |
| N#Cc1ccccc1NC(=O)Nc1cccc(Cl)c1 | -12% | -14% |
| O=C(CNC(=O)c1ccccc1F)OCC(=O)N1CCCCC1 | -1% | -8% |
| CC(=O)Nc1ccc2c(c1)C(=O)N(c1ccc(C)cc1)C2=O | -10% | -10% |
| CCCCN(C(=O)CSc1nc2ccccc2s1)c1c(N)n(CCCC)c(=O)[nH]c1=O | 5% | -14% |
| COc1ccc(NC(=O)c2cc3c(=O)n(Cc4cccs4)ccc3nc2C)c(OC)c1 | -2% | i |
| CCOc1ccc(NC(=O)CCc2c(C)nc3c(c(C)nn3-c3ccccc3)c2C)cc1 | -8% | -12% |
| CN(C)c1nc(NCc2ccccc2)nc(SCC(=O)Nc2ccccc2Cl)n1 | -17% | -15% |
| Cc1cc(C)c(Cn2c(=O)n(CCCCCC(=O)NCc3ccc4c(c3)OCO4)c(=O)c3sccc32)c(C)c1 | -17% | -22% |
| Cc1nc2c(O)c3c(c(O)c2nc1C)C1C=CC3CC1 | -25% | -4% |
| COc1ccc(C(=O)COC(=O)CNS(=O)(=O)c2ccc(C)cc2)cc1 | -12% | -16% |
| CC(NC(=O)Nc1cccc([N+](=O)[O-])c1)(C(F)(F)F)C(F)(F)F | ? | ? |
| CC(C)c1ccc(NC(=O)Nc2nc(C(N)C3CCCCC3)cs2)cc1 (stereo not given) | ? | -27% |
| CCOC(=O)c1sc(NC(=O)c2ccc(S(=O)(=O)N3CCOCC3)cc2)cc1C | ? | ? |

Remaining list, next part
SMILES | VACV Venus inh | VACV mCherry inh
COc1ccc(S(=O)(=O)N(CC(=O)NCC2CCCO2)Cc2ccccc2)cc1C (stereo not given) | -5% | -18%
CSc1sc(-c2nnc(SCC(=O)Nc3ccccc3)n2C)c2c1C=CCC2 | -25% | -28%
O=C(COc1ccc(F)cc1)Nc1ccc2nc(SCCOc3ccccc3)sc2c1 | -1% | -12%
CCOC(=O)/C=C/c1cccc(C)c1O | -15% | ?
Cc1ccc(NC(=S)NCCSc2ccc(Cl)cc2)cc1 | -1% | 0%
O=C(NCc1cccs1)c1cccnc1SCCS(=O)(=O)c1ccc(C(F)(F)F)cn1 | ? | ?
COc1c(C(=O)Nc2ccc3[nH]c(=O)[nH]c3c2)cc2ccccc2c1Br | -29% | -19%
O=C1NCC(c2ccccc2)C1C(=O)N/N=C/c1ccc(Cl)s1 (stereo not given) | -11% | i
COC(=O)C(Cc1ccccc1)NC(=O)CNC(=O)c1ccc(Br)cc1 (stereo not given) | -6% | -13%
COc1ccc(N2C(=O)CS(=O)(=O)C23C(=O)N(Cc2ccc(F)cc2)c2ccc(C)cc23)cc1 (stereo not given) | 12% | -1%
CCOC(=O)CC12CN3CN(C1)CC(CC(=O)OCC)(C3)C2=O | -17% | -7%
Cc1ccc(/C=C2\SC(=S)N(C3CCS(=O)(=O)C3)C2=O)cc1 (stereo not given) | -11% | -9%
Cc1csc(SC(C)C(=O)Nc2ccc(S(=O)(=O)N3CCCC3)cc2)n1 (stereo not given) | 1% | -2%
Cc1ccc(NC(=O)C2CCCN2S(=O)(=O)c2cccc3nsnc23)c(Br)c1 (stereo not given) | 4% | -10%
OCC#CC[N+]1(CC#Cc2ccccc2)CCOCC1 | -2% | -5%
O=C(/C=C/[C@H]1O[C@@H](n2ccc(=O)[nH]c2=O)[C@H](O)[C@@H]1O)NCc1ccco1 | -3% | i
Cc1ccc(S(=O)(=O)NC(CC(C)C)C(=O)N2CCOCCOCCOCCOCC2)cc1 (stereo not given) | -18% | -20%
C/C=C/c1cccc(-c2nc(C(=O)NC3CCCC3)cc3c2[C@@H](CCO)N(S(=O)C(C)(C)C)C3)c1 (stereo not given in full) | 8% | 2%
COc1cccc(NC(=O)NC2(C(=O)N3CCN(C)CC3)CCCCC2)c1 | -5% | -5%
CCc1nn(CCCC(=O)NCc2ccccc2OC)c(=O)c2cc3occc3n12 | -14% | -3%
CCc1nc2ccc(C(=O)Nc3cccc(OC)c3)cn2c1N(CCC(C)C)CCN(C)C | -10% | i
CCn1c2c(c3ccc(OC)cc31)CCCC2=O | -15% | -27%
Cc1ccc(NC(=O)C(Cc2ccccc2)NS(=O)(=O)c2cccc3nsnc23)c(C)c1 (stereo not given) | -11% | -14%
Cc1c(C(=O)N2CCN(c3ccccn3)CC2)cccc1[N+](=O)[O-] | -9% | i
O=C(Cn1cc([N+](=O)[O-])ccc1=O)Nc1ccc2c(c1)OCO2 | -10% | i
